GIV-Gai inh = blocks GIV peptide binding to rat Galpha-i3 | P08753 | Galpha-i3/FITC-GIV peptide fluorescence polarization, 90 min; active compounds read low; scaled: aluminum fluoride 0%, vehicle 100% | percent of control (FP), % (no concentration beside the values) | hit rate 0.42% among 210,000;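 active means replicate mean at 85% of control or lower, very high polarization wells dropped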;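 further: wells of about 15 µL received 100 nL stock; the first replicate is given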
Target sequence (P08753 whole entry, looked up): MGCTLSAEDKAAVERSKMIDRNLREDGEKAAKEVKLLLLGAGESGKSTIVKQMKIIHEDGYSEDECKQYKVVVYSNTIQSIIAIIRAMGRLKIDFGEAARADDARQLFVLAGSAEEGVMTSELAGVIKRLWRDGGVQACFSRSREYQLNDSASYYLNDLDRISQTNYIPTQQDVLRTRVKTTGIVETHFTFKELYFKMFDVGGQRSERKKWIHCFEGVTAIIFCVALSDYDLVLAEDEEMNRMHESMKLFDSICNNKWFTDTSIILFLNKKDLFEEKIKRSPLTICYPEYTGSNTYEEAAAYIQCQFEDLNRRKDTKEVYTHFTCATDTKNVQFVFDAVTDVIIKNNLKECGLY
Sa growth inh = blocks Staphylococcus aureus growth; S. aureus RN4220 growth, OD600, 20 h, 42 °C; active compounds read low; hit rate 0.53% among 170,000; relative growth, % (test concentration not listed);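 active means growth at 42 °C up to 50% and 20 or more points under that at 30 °C, or under 10% at both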;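 further: 300 nL library stock went into each well; scaled to the means of positive and negative controls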
HCMV NEC inh = inhibitors of HCMV UL50-UL53 nuclear egress complex interaction. AID 1918969. inhibition, % (test concentration not listed). HTRF UL50-UL53 interaction, normalized percent inhibition. hit rate 0.15% among 190,000;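 active means both replicates at 50% or more, plus weaker picks with an unusually low signal ratio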;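 further: stock transfer was 100 nL into about 20 µL; 0% = negative control wells and 100% = wells with untagged competitor protein; inactives centre near -12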
Sa growth inh second temp = further read-out of Sa growth inh, marked with its call; relative growth, %; measured here: growth at 30 °C;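 optical density after 20 h as mean of two plates; 100% = untreated growth and lower means inhibition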
Numbers without * were called inactive; & = joins results of further samples.

What do the screens show for `Cc1nc(Nc2ccc(NS(=O)(=O)c3cccc(Br)c3)cc2)cc(N2CCCC2)n1`?
GIV-Gai inh: 104; HCMV NEC inh: -33

How did CC(NC(=O)Cc1ccsc1)c1ccc(S(N)(=O)=O)cc1 (stereo not drawn) do in these assays?
Sa growth inh: 90; HCMV NEC inh: -7; Sa growth inh second temp: 94

What do the screens show for `COc1ccc(C2CC(c3ccccc3)n3ncnc3N2C(C)=O)cc1` (stereo not drawn)?
GIV-Gai inh: 99; Sa growth inh: 88; Sa growth inh second temp: 81

What do the screens show for `CCOC(=O)C(C)C1(O)c2ccccc2-c2ncccc21` (stereo not drawn)?
GIV-Gai inh: 105; Sa growth inh: 106; HCMV NEC inh: -7; Sa growth inh second temp: 84

How did Cc1cccnc1NC(=O)c1ccc(S(=O)(=O)N2CCCCC2)cc1 do in these assays?
Sa growth inh: 82; HCMV NEC inh: -21; Sa growth inh second temp: 91

Results for COc1cc(-c2nc(Nc3ccc(C)c(F)c3)c3ccccc3n2)cc(OC)c1OC ?
GIV-Gai inh: 107; Sa growth inh: 110; Sa growth inh second temp: 93

What do the screens show for `N[C@@H](Cc1ccc(F)cc1)C(=O)O`?
GIV-Gai inh: 103; HCMV NEC inh: -34

What do the screens show for `c1ccc2c(NC3CCCCC3)nc(-c3ccncc3)nc2c1`?
GIV-Gai inh: 101; Sa growth inh: 85; HCMV NEC inh: -10; Sa growth inh second temp: 80

How did c1ccc2c(c1)n1cnnc1c1nncn21 do in these assays?
GIV-Gai inh: 104; Sa growth inh: 108; HCMV NEC inh: -8; Sa growth inh second temp: 78

How did COc1ccc(CCN2C(=O)CC(N3CCN(C)CC3)C2=O)cc1OC (stereo not drawn) do in these assays?
Sa growth inh: 90; HCMV NEC inh: 4; Sa growth inh second temp: 93

How did Cn1nccc1C(=O)N1CCCC1c1cccc(F)c1 (stereo not drawn) do in these assays?
GIV-Gai inh: 104; HCMV NEC inh: -5

What do the screens show for `O=c1[nH]c2ccccc2c2cn(-c3ccccc3)nc12`?
Sa growth inh: 115; HCMV NEC inh: 17; Sa growth inh second temp: 106

How did Cc1ccc(CNc2ncnc3sc4c(c23)CCCC4)cc1 do in these assays?
GIV-Gai inh: 105; HCMV NEC inh: -11

What do the screens show for `COc1ccc(Cn2c(=O)c3cccnc3n(CC(=O)Nc3ccc(C)c(F)c3)c2=O)cc1`?
GIV-Gai inh: 105; Sa growth inh: 100; HCMV NEC inh: -5; Sa growth inh second temp: 97

What do the screens show for `CCn1c(C(=O)NCCCc2ccccc2)cc2oc3ccccc3c21`?
GIV-Gai inh: 108; Sa growth inh: 107; Sa growth inh second temp: 99

Results for O=C(Nc1c2c(nn1-c1ccccc1)CS(=O)C2)c1ccccc1 (stereo not drawn) ?
GIV-Gai inh: 110; Sa growth inh: 95; HCMV NEC inh: -14; Sa growth inh second temp: 81

How did CCC1C(=O)C2=C(CC(C)(C)CC2=O)N(c2ccc(OC)cc2)C1c1ccccc1 (stereo not drawn) do in these assays?
Sa growth inh: 83; HCMV NEC inh: -5; Sa growth inh second temp: 80

How did Cc1noc(N)c1C(=O)OCc1ccc(COC(=O)c2c(C)noc2N)cc1 do in these assays?
Sa growth inh: 101; HCMV NEC inh: 13; Sa growth inh second temp: 94

How did O=C(COC(=O)c1cccnc1Cl)NCc1ccc(Cl)cc1 do in these assays?
Sa growth inh: 128; HCMV NEC inh: -15; Sa growth inh second temp: 90

How did Cc1ccc(OCC(=O)Nc2cccc(C(=O)OCc3cc(=O)n4cc(C)sc4n3)c2)cc1 do in these assays?
GIV-Gai inh: 102; Sa growth inh: 100; Sa growth inh second temp: 77

What do the screens show for `COc1ccccc1C(=O)Nc1cc(C)c(OCC(=O)N2CCOCC2)c(C)c1`?
GIV-Gai inh: 107; Sa growth inh: 101; HCMV NEC inh: -11; Sa growth inh second temp: 95

Results for CCCCCCC1CC=C(C(=O)O)CC1 (stereo not drawn) ?
GIV-Gai inh: 95; Sa growth inh: 97; HCMV NEC inh: -39; Sa growth inh second temp: 102

Results for O=C(c1cc2c(s1)-c1ccccc1OC2)N1CCN(c2ccccc2)CC1 ?
GIV-Gai inh: 102; Sa growth inh: 120; HCMV NEC inh: -27; Sa growth inh second temp: 94

What do the screens show for `Cc1csc2c(N3CCN(C(=O)NC(C)(C)C)CC3)ncnc12`?
GIV-Gai inh: 104; Sa growth inh: 95; HCMV NEC inh: -23; Sa growth inh second temp: 88

What do the screens show for `COc1ccc(/C=C/C(=O)Nc2ccc(Cl)cn2)cc1OC`?
Sa growth inh: 98; HCMV NEC inh: -47; Sa growth inh second temp: 78

What do the screens show for `O=C(Nc1ccc(Cl)cc1)c1cnn2c1NC(c1ccc(Br)cc1)=CC2c1ccccc1F` (stereo not drawn)?
GIV-Gai inh: 106; HCMV NEC inh: -35

Results for O=C(NCCN1CCN(C(=O)c2ccccc2F)CC1)C(=O)Nc1ccc(F)cc1 ?
GIV-Gai inh: 97; HCMV NEC inh: 5

Results for CCc1nn2c(=O)c(S(=O)(=O)N3CC(=O)N(CCc4ccccc4)C(=O)C3)c(C)nc2s1 ?
GIV-Gai inh: 101; HCMV NEC inh: -31

Results for O=C(c1cc2cc(Br)ccc2oc1=O)N1CCSC1c1cccc([N+](=O)[O-])c1 (stereo not drawn) ?
GIV-Gai inh: 100; HCMV NEC inh: -19

Results for CC(C)N1CCc2c(sc(N)c2C(N)=O)C1 ?
GIV-Gai inh: -67*; Sa growth inh: 102; Sa growth inh second temp: 80

2 compounds picked at random from those above, as already listed:
What do the screens show for `O=C(Nc1ccc(Cl)cc1)c1cnn2c1NC(c1ccc(Br)cc1)=CC2c1ccccc1F` (stereo not drawn)?
GIV-Gai inh: 106; HCMV NEC inh: -35

Results for O=C(NCCN1CCN(C(=O)c2ccccc2F)CC1)C(=O)Nc1ccc(F)cc1 ?
GIV-Gai inh: 97; HCMV NEC inh: 5

Going on with the list:
What do the screens show for `COc1cccc(C(=O)N2CCC(N3CCN(Cc4ccc(C)cc4)C(=O)C3=O)CC2)c1`?
GIV-Gai inh: 98; HCMV NEC inh: -21

How did Cc1ccc2c(CC(=O)N3CCSC3=Nc3ccccc3C)coc2c1 do in these assays?
Sa growth inh: 110; HCMV NEC inh: -7; Sa growth inh second temp: 88

How did CCOc1ccc(S(=O)(=O)N2CCC(C)CC2)cc1-c1nc(C)no1 do in these assays?
GIV-Gai inh: 107; HCMV NEC inh: -20

What do the screens show for `CC1CC(C)CN(C(=O)C(C)n2sc3ccccc3c2=O)C1` (stereo not drawn)?
GIV-Gai inh: 101; Sa growth inh: 120; HCMV NEC inh: 9; Sa growth inh second temp: 96

How did CC(C)(CNC(=O)c1cc(Cl)c(O)c(Cl)c1)N1CCOCC1 do in these assays?
Sa growth inh: 81; HCMV NEC inh: -22; Sa growth inh second temp: 91

Results for CN(C(=O)CSc1nnc2[nH]c(=O)cc(-c3ccccc3)n12)c1ccccc1 ?
GIV-Gai inh: 102; Sa growth inh: 95; Sa growth inh second temp: 100

Results for O=C(COc1ccccc1F)Nc1ccc2nc(SCc3ccccc3)sc2c1 ?
GIV-Gai inh: 102; Sa growth inh: 104; HCMV NEC inh: -32; Sa growth inh second temp: 88

How did CNc1oc(-c2ccc(S(=O)(=O)N(C)Cc3ccccc3)cc2)nc1C#N do in these assays?
GIV-Gai inh: 101; HCMV NEC inh: -8

What do the screens show for `C=CCc1cccc(CNc2ccc(Cl)cc2)c1O`?
GIV-Gai inh: 100; Sa growth inh: 83; HCMV NEC inh: -9; Sa growth inh second temp: 92

Results for COc1cc(S(=O)(=O)n2cnc3cc(C)c(C)cc32)ccc1Cl ?
GIV-Gai inh: 100; Sa growth inh: 70; HCMV NEC inh: -26; Sa growth inh second temp: 44

What do the screens show for `CCC(=O)Nc1ccc2c(c1)nc(CN1CCN(C(C)=O)CC1)n2C`?
GIV-Gai inh: 101; HCMV NEC inh: 5

Results for O=C(NCCN1CCCCC1)C1=Cc2ccccc2OC1 ?
GIV-Gai inh: 103; HCMV NEC inh: -58

What do the screens show for `CCN(CC(=O)NCc1cccs1)C(=O)c1ccc(S(=O)(=O)N2CCOCC2)cc1`?
Sa growth inh: 112; HCMV NEC inh: 1; Sa growth inh second temp: 90

Results for COc1ccc(/C=N/NC(=O)c2ccccc2)cc1OC ?
GIV-Gai inh: 97; Sa growth inh: 96; HCMV NEC inh: -28; Sa growth inh second temp: 104

Results for Cc1cc(=O)n(CNC(=O)c2ccco2)cn1 ?
Sa growth inh: 93; HCMV NEC inh: 0; Sa growth inh second temp: 88

Eight compounds already listed, ordered by heavy-atom count, low to high.
Results for Cc1cc(=O)n(CNC(=O)c2ccco2)cn1 ?
Sa growth inh: 93; HCMV NEC inh: 0; Sa growth inh second temp: 88

Results for COc1ccc(/C=N/NC(=O)c2ccccc2)cc1OC ?
GIV-Gai inh: 97; Sa growth inh: 96; HCMV NEC inh: -28; Sa growth inh second temp: 104

How did CC(C)(CNC(=O)c1cc(Cl)c(O)c(Cl)c1)N1CCOCC1 do in these assays?
Sa growth inh: 81; HCMV NEC inh: -22; Sa growth inh second temp: 91

How did CCOc1ccc(S(=O)(=O)N2CCC(C)CC2)cc1-c1nc(C)no1 do in these assays?
GIV-Gai inh: 107; HCMV NEC inh: -20

How did Cc1ccc2c(CC(=O)N3CCSC3=Nc3ccccc3C)coc2c1 do in these assays?
Sa growth inh: 110; HCMV NEC inh: -7; Sa growth inh second temp: 88

How did CNc1oc(-c2ccc(S(=O)(=O)N(C)Cc3ccccc3)cc2)nc1C#N do in these assays?
GIV-Gai inh: 101; HCMV NEC inh: -8

Results for CN(C(=O)CSc1nnc2[nH]c(=O)cc(-c3ccccc3)n12)c1ccccc1 ?
GIV-Gai inh: 102; Sa growth inh: 95; Sa growth inh second temp: 100

What do the screens show for `CCN(CC(=O)NCc1cccs1)C(=O)c1ccc(S(=O)(=O)N2CCOCC2)cc1`?
Sa growth inh: 112; HCMV NEC inh: 1; Sa growth inh second temp: 90

Further compounds:
What do the screens show for `O=C(Cn1nnc(-c2ccc(Cl)cc2)n1)NCc1ccc(F)cc1`?
GIV-Gai inh: 101; Sa growth inh: 97; HCMV NEC inh: -11; Sa growth inh second temp: 89

What do the screens show for `NC(=O)CSc1nc2c(cnn2CCO)c(=O)[nH]1`?
GIV-Gai inh: 102; HCMV NEC inh: -24

Results for CC(C)n1c(SCC(=O)C(C)(C)C)nc2cc(C(F)(F)F)ccc21 ?
GIV-Gai inh: 103; Sa growth inh: 108; HCMV NEC inh: -20; Sa growth inh second temp: 97

Results for CCn1nccc1C1CCCN1S(=O)(=O)c1cc(OC)ccc1OC (stereo not drawn) ?
GIV-Gai inh: 98; HCMV NEC inh: -28

What do the screens show for `C/C(=N/N=C1/NC(=O)CC(C(=O)O)S1)c1ccccc1` (stereo not drawn)?
GIV-Gai inh: 104; Sa growth inh: 92; HCMV NEC inh: -37; Sa growth inh second temp: 90

Results for CCCCc1nn2c(=O)cc(COC(=O)c3ccc(NC(=O)c4cccs4)cc3)nc2s1 ?
GIV-Gai inh: 105; Sa growth inh: 107; Sa growth inh second temp: 93

How did Cc1cc(NC(=O)CCC(=O)N(c2ccc(F)cc2)C2(C(=O)NC3CCCCC3)CCCC2)no1 do in these assays?
GIV-Gai inh: 101; Sa growth inh: 96; HCMV NEC inh: -15; Sa growth inh second temp: 94

Results for O=C(Nc1cnn(Cc2ccc(F)cc2)c1)c1cc(-c2ccc(Br)cc2)on1 ?
GIV-Gai inh: 102; Sa growth inh: 92; HCMV NEC inh: -29; Sa growth inh second temp: 87

Results for CCOC(=O)c1ccccc1NC(=O)Cn1c(=O)n(Cc2nc(C)no2)c(=O)c2ccccc21 ?
GIV-Gai inh: 99&103; Sa growth inh: 100; HCMV NEC inh: -2; Sa growth inh second temp: 89

What do the screens show for `O=C1c2ccccc2C(=O)N1CCSc1nnc(Cc2cccs2)n1CCc1ccccc1`?
Sa growth inh: 120; HCMV NEC inh: -21; Sa growth inh second temp: 82

How did CCN(CC)c1ccc(NC(=O)C2COc3ccc(OC)cc3C2)c(C)c1 (stereo not drawn) do in these assays?
GIV-Gai inh: 103; Sa growth inh: 110; Sa growth inh second temp: 95

Results for CC1=C(C#N)C(c2ccc(O)cc2)C2=C(CCCC2=O)N1 (stereo not drawn) ?
GIV-Gai inh: 102; Sa growth inh: 90; HCMV NEC inh: -20; Sa growth inh second temp: 76

Results for O=C(COc1ccc2ccc(=O)oc2c1)NC1CCCC1 ?
Sa growth inh: 97; HCMV NEC inh: -16; Sa growth inh second temp: 83

Results for COc1ccc2cc(C(=O)c3ccc(Cl)c(C)c3)oc2c1 ?
GIV-Gai inh: 102; Sa growth inh: 104; Sa growth inh second temp: 83

What do the screens show for `COc1ccc(Br)cc1-c1nc(COC(=O)c2ccc(C)o2)cs1`?
Sa growth inh: 90; HCMV NEC inh: -21; Sa growth inh second temp: 89

How did CC(=O)n1c(/C=C2\C=c3cccc(C)c3=NC2=O)c(O)[nH]c1=S do in these assays?
GIV-Gai inh: 92; Sa growth inh: 96; Sa growth inh second temp: 95

Results for CCCCn1nnnc1CSc1nc2cc(Cl)ccc2n1Cc1ccccc1 ?
Sa growth inh: 96; HCMV NEC inh: -4; Sa growth inh second temp: 92

Results for O=c1[nH]c(Nc2nc(-c3ccccc3)c3cc(Cl)ccc3n2)nc2ccccc12 ?
GIV-Gai inh: 93; HCMV NEC inh: -9

Results for Cc1ccc(COc2cccc3cc(-c4noc(-c5ccc(C)cc5)n4)c(=O)oc23)cc1 ?
GIV-Gai inh: 106; Sa growth inh: 106; HCMV NEC inh: -3; Sa growth inh second temp: 102

What do the screens show for `CN(Cc1ccccc1)C(=O)c1cc2c(s1)-c1ccc(Cl)cc1SC2`?
GIV-Gai inh: 99; Sa growth inh: 97; HCMV NEC inh: -20; Sa growth inh second temp: 83

Bioassay records as filed in PubChem.
